# High-throughput results from PubChem BioAssay.
# YopH inh: inhibitors of Yersinia enterocolitica YopH tyrosine phosphatase; fluorescence Ex485/Em525; AID 898; inhibition, %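 (about 10 µM by stock and volumes)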; 0.16% of 140,000 active;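 active means inhibition of 50% or more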;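 further: controls were vehicle for no effect and minimum signal wells for full effect; inactives centre near -20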
# RecA intein inh: Mtb RecA intein splicing inhibition | P9WHJ3 | inhibition, %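 (about 9 µM by stock and volumes)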 | cell-free RecA intein splicing, fluorescence | 0.75% of 290,000 active; in the data active means inhibition above about 30%; inconclusive means no clear call, values can overlap the other calls;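 further: 0% = vehicle wells and 100% = reference inhibitor control wells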
# Target sequence (P9WHJ3 whole entry, looked up): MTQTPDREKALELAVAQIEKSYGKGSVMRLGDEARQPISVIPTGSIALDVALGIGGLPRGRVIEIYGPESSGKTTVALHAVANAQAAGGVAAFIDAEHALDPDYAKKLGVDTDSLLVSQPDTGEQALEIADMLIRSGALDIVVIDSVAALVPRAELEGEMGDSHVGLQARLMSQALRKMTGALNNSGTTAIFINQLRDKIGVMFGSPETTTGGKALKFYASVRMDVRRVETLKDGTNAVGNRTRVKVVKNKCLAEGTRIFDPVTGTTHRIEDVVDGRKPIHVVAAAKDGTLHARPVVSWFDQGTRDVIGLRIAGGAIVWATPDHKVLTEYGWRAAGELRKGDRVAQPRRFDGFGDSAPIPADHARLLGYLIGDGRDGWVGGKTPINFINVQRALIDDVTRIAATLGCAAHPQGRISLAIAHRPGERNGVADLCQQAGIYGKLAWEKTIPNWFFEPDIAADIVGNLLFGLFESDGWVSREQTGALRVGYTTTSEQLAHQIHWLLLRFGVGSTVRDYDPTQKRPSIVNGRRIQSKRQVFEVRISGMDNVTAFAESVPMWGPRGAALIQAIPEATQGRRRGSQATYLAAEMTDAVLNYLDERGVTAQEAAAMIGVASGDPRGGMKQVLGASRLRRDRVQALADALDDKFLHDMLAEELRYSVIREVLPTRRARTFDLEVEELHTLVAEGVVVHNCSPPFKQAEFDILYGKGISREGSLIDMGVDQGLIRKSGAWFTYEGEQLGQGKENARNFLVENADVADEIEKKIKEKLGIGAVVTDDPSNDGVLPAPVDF
# Mtb bLac sens: beta-lactam sensitization of Mtb H37Rv. M. tuberculosis H37Rv growth with meropenem, percent inhibition; hits of this screen are not shown here. inhibition, % at 25 µM. 0.27% of 330,000 active. AID 434955;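 active means about 74% or more and at least 40 points above the plate without the antibiotic, then above 30% in a dose series; inconclusive means first-round hits that could not be retested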;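 further: growth measured after seven days incubation then overnight dye step; 0% = bacteria only wells and 100% = bacteria with antibiotic; twin plates without the antibiotic show which effects depend on it; some results filed as inactive read as strong as hits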
# Arbovirus anti: arbovirus infection inhibition; 0.37% of 200,000 active; inhibition, % at 10 µM; arbovirus infection cell-based antiviral screen;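 active means inhibition from about 30%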;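 further: bluetongue infection of BSR cells; cell survival read as ATP light after 72 h; 0% = infected wells without compound and 100% = uninfected wells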
# Mtb H37Rv: M. tuberculosis H37Rv growth inhibitors, H37Rv strain (AID 1626); one-dose inhibition, % at 10 µM; IC50 in µM for titrated hits; M. tuberculosis H37Rv growth inhibition; higher % means a stronger effect; 0.95% of 220,000 active;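 active means confirmed in a dose series; inconclusive means inhibition above 80% but not taken into the dose series; inactive means below 80% or under 30% at every dose of the series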;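 further: bacteria incubated seven days before Alamar blue readout; 0% = bacteria only wells and 100% = bacteria with antibiotic wells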
# Arbovirus anti repeat: recorded beside Arbovirus anti, whose call it bears; inhibition, %; measured here: 10K subset replicate screen; many hits read low in the repeat;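 first of two repeat runs on a subset; 0% = infected and 100% = uninfected wells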
# Active calls of the source: *; ? = inconclusive; . = no result given.
SMILES,YopH inh,RecA intein inh,Mtb bLac sens,Arbovirus anti,Mtb H37Rv,others
CNC(=O)c1[nH]nc2c1CCc1ccccc1-2,.,1.2,5,.,.,
COc1ccc(C(=O)CSc2nnc(-c3cc(C)on3)o2)cc1,-18,11,-2,-7,0%,
CC(C)(C)[C@@H]1C=C(C(=O)N2CCN(Cc3ccccc3)CC2)O[C@H](OCc2ccc(CO)cc2)C1,.,4.6,-3,-13,11%,
C=CCNC(=S)N1CCN(CCN=CC2=C(O)CC(c3cccs3)CC2=O)CC1 (stereo not given),-31,1.6,2,3,-1%,
CSCCC(NS(=O)(=O)c1ccc2c(c1)oc(=O)n2C)C(=O)NC1CCN(Cc2ccccc2)CC1 (stereo not given),.,0.8,2,7,-2%,
CCOC(=O)c1ccccc1NC1OC(=O)c2ccccc21 (stereo not given),-44,0.1,-2,8,0%,
N#Cc1cnc2c(-c3ccccc3)c(-c3ccccc3)nn2c1N,.,-1.0,62,-3,28µM*,
O=C(N/C(=C/c1ccc(Cl)cc1)c1nc2ccccc2[nH]1)c1ccco1,-45,3.3,-1,-11,.,
COc1ccc(-c2occ(C(=O)O)c2C(=O)O)cc1,-30,0.3,-5,7,-7%,
COc1ccc(OC)c(CNC(=O)CCC(=O)N2Cc3cccc(OC)c3Oc3ncccc32)c1,.,1.3,5,.,.,
CC(C)CC(=O)Nc1ccc(OCC(=O)O)cc1,-5,-1.5,-2,-5,-2%,
COc1ccc(NC(=O)CSc2nnc3ccc(-c4cccnc4)nn23)cc1,.,-0.3,-4,.,.,
Cc1ccc(-n2[nH]c3c4c(ccc3c2=O)C(=O)c2ccccc2C4=O)cc1,-14,-6.3,-2,4,.,
COc1ccc(S(=O)(=O)N(C)C)cc1NC(=O)CSc1nncs1,.,-4.4,0,12,5%,
CNS(=O)(=O)c1cc(N(C)S(=O)(=O)c2ccc(C)cc2)c(C)cc1C,.,2.3,-7,11,5%,
O=C(O/N=C/C1=C(Cl)c2ccccc2CC1)c1ccc(F)cc1,-24,0.6,79,0,?,
COc1cccc(Nc2nc(-c3sc(NC(=O)c4ccco4)nc3C)cs2)c1,5,4.3,11,-22,-4%,
CCc1ccc(Nc2nc(N)nc(CSc3nnnn3-c3ccccc3)n2)cc1,9,1.1,-2,-1,-2%,
CCOc1ccc(NC(=O)c2cc(S(=O)(=O)N3CCCCC3)c[nH]2)cc1,.,-0.6,-6,.,.,
Cc1cccc(NC(=O)c2cc(Cl)sc2Cl)c1C,-13,-2.3,5,4,5%,
CCn1c(-c2ccc(F)cc2)n[nH]c1=S,-22,1.9,-7,12,5%,
CCOC(=O)CSC1=NC(=O)/C(=C\c2ccc(OC(C)=O)cc2)S1,-50,5.3,2,-3,0%,
COc1ccc(-n2c(SCc3ccccn3)nc3c(c2=O)SCC3)cc1OC,.,-3.9,-5,11,4%,
COCCN(C(=O)c1csnn1)C(C(=O)NC1CCCCC1)c1ccc(Cl)cc1 (stereo not given),.,2.2,2,.,.,
O=C(N/N=C/c1cn(Cc2ccccc2)c2ccccc12)c1cccnc1,-10,4.0,8,-4,10%,
CCOC(=O)C1CCCN(C(=O)c2ccc(CNc3c(N4CCC(C)CC4)c(=O)c3=O)cc2)C1 (stereo not given),-38,2.1,-2,4,1%,Arbovirus anti repeat=-2
CC1(C)Cc2c(sc3nc(C4CCCCC4)n(N)c(=O)c23)CO1,.,-0.5,-11,.,-5%,
CCCc1nc(SCC(=O)NNC(=O)C2CCCCC2)c2ccccc2n1,-26,1.8,4,4,-6%,
CCOC(=O)c1[nH]c2ccc(OC)cc2c1NC(=O)OC,-29,-2.0,5,-3,-17%,
COC(=O)c1sc(NC(=O)COc2ccccc2OC)nc1C,-17,1.7,-1,-2,8%,Arbovirus anti repeat=-4
CC(C)Cc1ccc(/C=C/C(=O)NC2CC2)cc1,-28,-1.5,-2,-2,5%,
Oc1ccccc1N1CCN(c2nnnn2-c2ccccc2)CC1,.,-1.1,-10,.,4%,
Cc1ccc(CN(C(=O)c2ccc([N+](=O)[O-])cc2)C2CCS(=O)(=O)C2)o1 (stereo not given),.,-1.4,13,.,.,
CCN(CC)c1nc2c(c(=O)n(C)c(=O)n2C)n1CC(=O)c1ccccc1,.,-1.0,-1,.,-2%,
Cc1cccc(N(CC(=O)NC2CCCC2)C(=O)c2csnn2)c1C,.,0.9,-1,.,.,
CC1CN(c2nnnn2-c2ccccc2)CC(C)O1 (stereo not given),-30,-2.7,-3,8,-4%,
COc1cc2c(cc1OC)CN(C(=O)c1ccc(S(=O)(=O)N3CCCC3)cc1)CC2,.,1.1,-7,.,-2%,
CCOCCCNC(=O)C(NC(=O)c1ccc2c(c1)OCO2)c1ccc(OC)cc1 (stereo not given),-50,-3.8,-3,2,2%,Arbovirus anti repeat=1
CCCCCOC(=O)C(C)Sc1n[nH]c(=O)[nH]c1=O (stereo not given),.,-0.6,1,0,6%,
O=C(Cn1[nH]c(=O)c2ccccc2c1=O)NC1CCN(Cc2ccccc2)CC1,-37,2.2,-5,3,-21%,
CCCCn1c(N)c(N(CC(C)C)C(=O)c2cc(=O)[nH]c3ccccc23)c(=O)[nH]c1=O,.,-0.5,3,.,.,
CC(=O)Nc1ccc(C(=O)Nc2cccc(-c3cnc4ccccc4n3)c2)cc1,.,1.1,.,-1,-12%,
O=C(CN1CCN(S(=O)(=O)c2ccc(Br)cc2)CC1)Nc1ccccc1C(=O)c1ccccc1,-13,-0.8,-1,-7,2%,
CCCC(=O)Nc1nc2ccc(OCC)cc2s1,-16,-4.2,-2,0,6%,Arbovirus anti repeat=5
O=C(N/N=C1\CCc2ccccc21)c1ccccc1Cl,-19,3.0,-1,-3,0%,
COC(=O)c1[nH]c2ccccc2c1NC(=O)Oc1ccccc1,2,-3.0,6,8,7%,
O=C(OC(C(=O)Nc1ccc(Cl)cc1C(F)(F)F)c1ccccc1)c1c(Cl)cccc1Cl (stereo not given),-30,4.5,4,-10,0%,
COc1cc(C(=O)NC(C)Cc2cccs2)cc(OC)c1OC (stereo not given),.,1.9,4,4,1%,
CCOc1ccccc1NC(=O)C1CCC(CNc2c(N3CCCCC3)c(=O)c2=O)CC1 (stereo not given),.,0.9,2,.,33%,
Cc1ccc(NC(=O)COC(=O)CCC(=O)c2cccs2)cc1,-32,22,6,0,-7%,
COc1ccc(/C=N/Nc2nnc(-c3ccccc3)c(=O)[nH]2)cc1,-31,0.7,4,8,-12%,
CCCNC(=O)c1ccc(N2CCC3(CC2)CC(c2cccc(Br)c2)=NO3)c(NC(=O)c2ccco2)c1,.,5.5,92,.,.,
Nc1nc(Cn2nnc(-c3ccccc3Cl)n2)nc(N2CCOCC2)n1,-23,-0.1,-4,0,0%,
CN(/N=C/c1cccnc1)C1=NS(=O)(=O)c2ccccc21,-43,-1.5,1,-11,-11%,
CCc1ccc(C(CC(=O)O)N2Cc3ccccc3C2=O)cc1 (stereo not given),.,0.5,-10,.,.,
CCC(=O)Nc1nc2nc(-c3ccccc3)cc(=O)n2[nH]1,.,-3.1,-9,.,.,
CCOC(=O)N1CCN(C(=O)c2ccc(NC(C)=O)cc2)CC1,24,-1.3,-3,13,-7%,
CSc1ccc(/C=C/C(=O)c2ccc(NC(C)=O)cc2)cc1,-20,-2.6,99,0,28µM*,
O=C(CN1CCN(C(=S)NC2CCCC2)CC1)Nc1ccc(Oc2ccccc2)cc1,-28,5.4,10,15,22%,
CCc1ccc(C2CC(=O)N(c3cccc(F)c3)C3=C2C(=O)OC3)cc1 (stereo not given),.,1.6,-7,-2,-9%,
# Additional records follow.
SMILES,YopH inh,RecA intein inh,Mtb bLac sens,Arbovirus anti,Mtb H37Rv,others
Cc1cc(N/N=C/c2c[nH]c3ccccc23)c2ccccc2n1,.,1.9,-3,-28,-2%,
CC(=O)Nc1ccc(Cl)cc1C(=O)O,0,-1.9,2,2,-4%,
Cc1ccc(OCCn2c3ccccc3n3nc(C)c(=O)nc23)cc1,.,4.2,0,1,0%,
CC(=O)Nc1ccc(/C(C)=N/NS(=O)(=O)c2ccc(C)cc2)cc1,-20,0.0,-12,8,.,
Cc1cc(C)cc(C(=O)Nn2cnnc2)c1,.,-4.4,9,.,.,
CC(C)c1nc(N2CCOCC2)c(C#N)c2c1COC(C)(C)C2,-43,-0.1,2,8,17%,
c1ccc(N2CCN(Cc3cn4ccccc4n3)CC2)cc1,.,-2.1,3,-5,-7%,
COc1cc(C)ccc1OCc1cc(C(=O)N2CCN(C)C[C@@H]2c2ccccc2)no1,.,0.6,-8,.,.,
COc1ccccc1NC(=O)c1c(NC(=O)c2ccco2)sc2c1CCC2,-15,-4.6,52,7,62%,Arbovirus anti repeat=-7
NNC(=O)C1CCCn2c1nc1sc3c(c1c2=O)CCCC3 (stereo not given),-14,-29,-11,-4,-1%,
Cc1ccc(SCC(=O)c2c(C)[nH]c3ccccc23)cc1,-3,0.5,-4,0,0%,
CC(c1ccco1)N(C(=O)c1ccccc1F)c1ccccn1 (stereo not given),.,3.8,-7,0,-4%,
CCn1c(=O)n(CC)c2cc(N3CCCC3)c(NC(=O)c3c(F)cccc3F)cc21,.,-2.0,25,.,.,
CCC(=O)Nc1ccccc1C(=O)N1CCCC1,-36,-0.8,-6,-3,-7%,
CC(C)CCOC(=O)C(C)Sc1n[nH]c(=O)[nH]c1=O (stereo not given),.,-0.1,-6,.,-1%,

# Of the compounds above, these have an aryl methoxy group.
SMILES,YopH inh,RecA intein inh,Mtb bLac sens,Arbovirus anti,Mtb H37Rv,others
COc1ccc(C(=O)CSc2nnc(-c3cc(C)on3)o2)cc1,-18,11,-2,-7,0%,
COc1ccc(-c2occ(C(=O)O)c2C(=O)O)cc1,-30,0.3,-5,7,-7%,
COc1ccc(OC)c(CNC(=O)CCC(=O)N2Cc3cccc(OC)c3Oc3ncccc32)c1,.,1.3,5,.,.,
COc1ccc(NC(=O)CSc2nnc3ccc(-c4cccnc4)nn23)cc1,.,-0.3,-4,.,.,
COc1ccc(S(=O)(=O)N(C)C)cc1NC(=O)CSc1nncs1,.,-4.4,0,12,5%,
COc1cccc(Nc2nc(-c3sc(NC(=O)c4ccco4)nc3C)cs2)c1,5,4.3,11,-22,-4%,
COc1ccc(-n2c(SCc3ccccn3)nc3c(c2=O)SCC3)cc1OC,.,-3.9,-5,11,4%,
CCOC(=O)c1[nH]c2ccc(OC)cc2c1NC(=O)OC,-29,-2.0,5,-3,-17%,
COC(=O)c1sc(NC(=O)COc2ccccc2OC)nc1C,-17,1.7,-1,-2,8%,Arbovirus anti repeat=-4
COc1cc2c(cc1OC)CN(C(=O)c1ccc(S(=O)(=O)N3CCCC3)cc1)CC2,.,1.1,-7,.,-2%,
CCOCCCNC(=O)C(NC(=O)c1ccc2c(c1)OCO2)c1ccc(OC)cc1 (stereo not given),-50,-3.8,-3,2,2%,Arbovirus anti repeat=1
COc1cc(C(=O)NC(C)Cc2cccs2)cc(OC)c1OC (stereo not given),.,1.9,4,4,1%,
COc1ccc(/C=N/Nc2nnc(-c3ccccc3)c(=O)[nH]2)cc1,-31,0.7,4,8,-12%,
COc1cc(C)ccc1OCc1cc(C(=O)N2CCN(C)C[C@@H]2c2ccccc2)no1,.,0.6,-8,.,.,
COc1ccccc1NC(=O)c1c(NC(=O)c2ccco2)sc2c1CCC2,-15,-4.6,52,7,62%,Arbovirus anti repeat=-7

# Some of the compounds tested, so the mix of outcomes need not match the whole.
